Cruzain inh Det = inhibitors of Trypanosoma cruzi cruzain with detergent. purified cruzain, Z-FR-AMC fluorescence, 0.01% Triton. Potency, µM, for the others: max response, negative = inhibition, most hits filed as inhibitors. hit rate 0.43% among 200,000. AID 1478; active = well fitted curve in the direction sought with a large enough effect; inconclusive = small, poorly fitted or top-dose-only effect, or another doubt; inactive = no such curve, though single readings can be large; an effect the other way counts as inactive or inconclusive;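 also: plate controls were neutral wells for no effect and buffer without enzyme for full effect; nearly all actives have a fitted effect of over 40% in size; top concentration of the series not given in the record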
Target sequence (P25779 123-467 limits assumed): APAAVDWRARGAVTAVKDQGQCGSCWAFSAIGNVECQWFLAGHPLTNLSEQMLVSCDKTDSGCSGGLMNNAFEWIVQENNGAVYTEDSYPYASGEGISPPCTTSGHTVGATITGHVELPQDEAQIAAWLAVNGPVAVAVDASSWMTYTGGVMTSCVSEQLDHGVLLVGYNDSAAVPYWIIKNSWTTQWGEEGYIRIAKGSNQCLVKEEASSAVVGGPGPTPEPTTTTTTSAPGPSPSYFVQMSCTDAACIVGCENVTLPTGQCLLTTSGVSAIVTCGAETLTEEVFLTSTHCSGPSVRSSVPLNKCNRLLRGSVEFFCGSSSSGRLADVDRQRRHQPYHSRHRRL
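Detergent-containing run (0.01% Triton X-100) in acetate buffer pH 5.5 with 5 mM DTT: enzyme at 1.5 nM final, 15 min compound preincubation at room temperature, then 2 uM Z-FR-AMC substrate. Activity taken as 60 s fluorescence increase at 360/450 nm.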
LASV entry inh = inhibitors of Lassa virus binding or cell entry | Lassa virus pseudotype entry inhibition, cell reporter; control for the full effect not named in the record | Potency, µM (doses to about 37.9 µM), inactives show at the highest dose activity change, negative = inhibition, most hits filed as inhibitors | hit rate 1.2% among 300,000; active means well fitted inhibition curve with a large enough effect; inconclusive means small, poorly fitted or top-dose-only effect, or effect the other way; inactive means flat fitted curve, though single readings scatter; tested in HEK293 cells; also: % is scaled to controls: 0 for no effect and ±100 for the full control effect; nearly all actives have a fitted effect of over 50% in size; luciferase read-out
StopGo reporter = lowers the luciferase signal of an FMDV 2A StopGo reporter | hit rate 1.2% among 410,000 | AID 1159524 | human cells with a luciferase reporter of 2A StopGo recoding; control for the full effect not named in the record | Potency, µM (highest dose often 57.9 µM), for the others: top-dose signal change, negative = less light; active = well fitted falling curve with a large enough effect; inconclusive = small, poorly fitted or top-dose-only effect; inactive = no such curve, though single readings can be large or run the other way; tested in HEK293T cells; also: % is scaled to controls: 0 for no effect and ±100 for the full control effect; nearly all actives have a fitted effect of over 45% in size; luciferase light after 4 h
Cruzain inh noDet = blocks cruzain activity in detergent-free assay | P25779 | purified cruzain, Z-FR-AMC fluorescence, no detergent | Potency, µM, for the others: max response, negative = inhibition, actives largely listed as inhibitors | hit rate 2.3% among 200,000 | AID 1476; active = well fitted curve in the direction sought with a large enough effect; inconclusive = small, poorly fitted or top-dose-only effect, or another doubt; inactive = no such curve, though single readings can be large; an effect the other way counts as inactive or inconclusive;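 also: plate controls were enzyme without inhibitor for no effect and buffer without enzyme for full effect; nearly all actives have a fitted effect of over 40% in size; top concentration of the series not given in the record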
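Purified cruzain at 1.5 nM, pre-incubated 15 min with compound at room temperature in 100 mM sodium acetate pH 5.5, 5 mM DTT, 0.00005% Triton X-100. Reaction started with 2 uM Z-FR-AMC; AMC fluorescence increase over 60 s gives rate.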
NS1 function inh = inhibitors of influenza NS1 protein function | S. cerevisiae slowed by influenza A NS1, growth recovery by OD600 | AID 2326 | hit rate 0.4% among 270,000 | Potency, µM (titrated, usually from 46.1 µM), inactives show top-dose activity, positive = more growth; also: actives are rising curves; nearly all actives have a fitted effect of over 50% in size
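A cell-based growth assay was used: compounds that relieve NS1-induced slow growth of budding yeast raise OD600. Assay medium was yeast nitrogen base with ammonium sulphate and -URA supplement, pH 6.0, with 2% galactose.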
RE007 growth inh = less growth of the S. pombe RE007 Vpr strain. AID 651644. S. pombe RE007 Vpr strain, BacTiter-Glo ATP luminescence, 24 h; control for the full effect not named in the record. Potency, µM (top dose mostly 92.2 µM), without a hit: at the top dose activity change, negative = less growth. hit rate 0.21% among 360,000; active = well fitted falling curve with a large enough effect; inconclusive = small, poorly fitted or top-dose-only effect; inactive = no such curve, though single readings can be large or run the other way;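 also: % is scaled to controls: 0 for no effect and ±100 for the full control effect; nearly all actives have a fitted effect of over 50% in size; the assay follows cell death caused by Vpr and the record does not say whether a fall means rescue or toxicity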
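Fission yeast RE007 carrying one integrated HIV-1 vpr copy, seeded at OD 0.01 in PMG+AL medium with 23 nL pinned compound. Grown 24 h at 30 degrees; viability read by BacTiter-Glo luminescence after 5 min.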
Marburg entry inh = blocks Marburg virus binding to or entry into cells. Marburg virus pseudotyped entry inhibition, cell reporter; control for the full effect not named in the record; about a third of the inactives were read at about 46 µM. Potency, µM (highest dose often 37.8 µM), for the others: at the top dose activity change, negative = inhibition, hits mostly inhibitors. hit rate 1.8% among 300,000; active = well fitted inhibition curve with a large enough effect; inconclusive = small, poorly fitted or top-dose-only effect, or effect the other way; inactive = flat fitted curve, though single readings scatter; tested in HEK293 cells; about a fifth of its hits are not listed in these tables; also: % is scaled to controls: 0 for no effect and ±100 for the full control effect; luciferase read-out
SARS PLpro yeast = SARS-CoV PLP inhibition in yeast. S. cerevisiae expressing SARS-CoV PLpro, growth rescue; control for the full effect not named in the record. Potency, µM (titrated, usually from 32.9 µM), for inactives: top-dose activity, positive = growth rescue. hit rate 0.19% among 330,000. AID 485353; also: 0% is about no effect; nearly all actives have a fitted effect of over 55% in size; growth read by luminescence after 48 h
Numbers without * were called inactive; ? = inconclusive; / = no result given; & = joins results of further samples; [ ] = dose if it differs, or a comment. Unless noted, calls follow the shape of the dose curve; as a rule, active means well fitted rising curve with a large enough effect; inconclusive means small, poorly fitted or top-dose-only effect; inactive means no such curve, though single readings can be large or run the other way. Potency is read from the fitted curve at half-maximal effect.

canonical_smiles	NS1 function inh	LASV entry inh	StopGo reporter	Cruzain inh noDet	SARS PLpro yeast	Cruzain inh Det	Marburg entry inh	RE007 growth inh
Cc1[nH]c2ccc(C(=O)OC(C)C(=O)NCc3ccccc3)cc2c1C (stereo unspecified)	/	?	?	/	0%	/	-26%	-11%
O=C(NN1CCOCC1)c1ccccc1F	1%	/	-22%	/	1%	/	/	12%
CCOC(=O)c1ccc(NC(=O)CSc2nc(C)cc(=O)[nH]2)cc1	?	-6%	12%	-18%	-5%	?	13%	-8%
CCOC(=O)c1sc2ccccc2c1S(=O)(=O)N1CCN(c2cccc(C)c2C)CC1	/	?	0%	13µM*	/	-2.3%	/	/
COc1ccc(-c2csc(NC(=O)CSc3nnc(Nc4ccccc4C)s3)n2)cc1	5%	?	17%	/	0%	/	?	-8%
N/C(=N\OC(=O)c1cccc2ccccc12)c1ccccn1	-74%	?	-13%	/	-5%	/	?	-25%
COc1ccccc1NC(=O)N1c2ccccc2NC(=O)CC1C (stereo unspecified)	-6%	11%	-15%	/	0%	/	19%	-16%
Cc1ccc(S(=O)(=O)N(C)Cc2nc(-c3ccncc3)no2)cc1	-7%	2%	2%	-4%	-9%	2.4%	25%	10%
CCC1CCCCN1C(=O)CCS(=O)(=O)c1cc2c(cc1C)NC(=O)CO2 (stereo unspecified)	/	10%[46.1 µM]	8%	3%	/	-2.9%	/	/
Cc1nc(COc2ccc(C(=O)Nc3ccccc3N3CCOCC3)cc2)cs1	-22%	10%[46.1 µM]	7%	/	-5%	/	-13%[46.1 µM]	-16%
Cc1ccc(S(=O)(=O)N2CCN(S(C)(=O)=O)C2C)cc1 (stereo unspecified)	/	7%	-3%	/	/	/	8%	1%
CCOC(=O)COc1ccc(Br)cc1/C=C1\SC(N)=NC1=O	21%	/	-19%	/	6%	/	/	2%
CN(C)C(=O)C[n+]1cccc(/C=N/O)c1	-5%	12%	-23%	0%	10%	-3.2%	?	-17%
CC1=C([N+](=O)[O-])C(c2ccccc2C(F)(F)F)NC(=O)N1C (stereo unspecified)	1%	?	-11%	/	1%	/	10%	-19%
Cc1ccc(SCC(=O)OCC(=O)NCC2CCCCC2)cc1C	/	4%	-4%	/	-6%	/	16%	1%
C=C(C)Cn1c(-c2cccs2)n[nH]c1=S	3%	-18%	15%	/	0%	/	?	-2%

Two compounds from above, reduced to NS1 function inh.
| molecule | NS1 function inh |
| --- | --- |
| N/C(=N\OC(=O)c1cccc2ccccc12)c1ccccn1 | -74% |
| COc1ccccc1NC(=O)N1c2ccccc2NC(=O)CC1C (stereo unspecified) | -6% |

(next part)
canonical_smiles	NS1 function inh	LASV entry inh	StopGo reporter	Cruzain inh noDet	SARS PLpro yeast	Cruzain inh Det	Marburg entry inh	RE007 growth inh
O=C(O)CSc1c2c(nc3cc(C(=O)Nc4cccc(C(F)(F)F)c4)ccc13)CCC2	17%	/	-15%	/	?	/	/	6%
CCOC(=O)CC/C(C)=N\N=C1\SC(CC(=O)O)C(=O)N1c1ccccc1 (stereo unspecified)	4%	-2%	-26%	/	0%	/	-4%[46.1 µM]	8%
Cc1cc(NC(=O)Cn2c(C)nc3ccccc3c2=O)ccc1Br	12%	0%	-25%	-6%	4%	-1.8%	3%[46.1 µM]	20%
CCOc1ccc(N2CC(C(=O)Nc3ccccc3F)CC2=O)cc1 (stereo unspecified)	-11%	0%	46%[activator]	-4%	5%	0.0%	-2%	12%
C#CCSc1[nH]c(=O)cc(C)c1C#N	0%	15%	-5%	/	0%	/	?	-9%
Cc1ccc(-c2noc(-c3cccnc3NCc3ccco3)n2)cc1	/	24%[46.1 µM]	27%	10%	/	-3.3%	?	/
CCNC(=S)N1CCN(CC(=O)Nc2ccc(Br)cc2)CC1	-3%	0%	-10%	-8%	7%	-1.1%	?	-3%
Cc1cccc(CSc2ncc(CO)n2C)c1	-1%	8%	12%	-4%	-26%	2.6%	7%	-16%
CCCCNC(=O)CSc1nc2n[nH]c(C)c2c(=N)n1-c1cccc(Cl)c1C	10%	?	-20%&-6%	?	17%	-0.9%&-0.1%	?	9%
Cc1ccccc1-n1ccnc1SCC(=O)NC1CCCC1	-8%	/	8%	/	7%	/	/	4%
COc1ccc(-c2csc3ncnc(N4CCN(S(=O)(=O)c5cccc(F)c5)CC4)c23)cc1	/	?	-15%	/	5%	/	?	3%
O=C(COC(=O)CNS(=O)(=O)c1ccc(F)c(F)c1F)NC1CC1	/	15%	9%	/	1%	/	25%	-23%
CC(=O)N1CN(S(=O)(=O)c2ccc(C)cc2)CC1C (stereo unspecified)	17%	1%	/	-4%	-3%	0.7%	1%	-27%
S=c1[nH]nc(-c2cccc(Cl)c2)n1/N=C/c1ccc(-c2ccccc2Br)o1	3%	/	-7%	/	-1%	/	/	19%
O=C(CSc1nc2ccccc2c(=O)n1CCCO)N1CCc2ccccc21	-10%	-14%	?	-11%	-16%	-4.1%	0%	4%
Cc1ccc(S(=O)(=O)Nc2cc3c4c(c2)CCC(=O)N4CCC3)cc1	/	?	7%	/	-4%	/	-4%[46.1 µM]	11%
CCOC(=O)c1nn(-c2ccc(OC)cc2)c(=O)c2c(N)scc12	6%	?	-22%	6%	-3%&2%	-14%	1%&1%&1%&1%	-1%
CC(C)c1ccc(OCC(=O)Nc2ccc(S(=O)(=O)Nc3ccccn3)cc2)cc1	1%	/	13%	/	-1%	/	-18%[46.1 µM]	-1%
Nc1ccc2nc(SCc3ccccc3F)sc2c1	2%	17%	16%	/	-11%	/	?	93%
Nc1ncnc2c1ncn2[C@@H]1O[C@H](CNC(=O)[C@@H](N)Cc2ccc(C(F)(F)F)cc2)[C@@H](O)[C@H]1O	/	/	-3%	/	-19%	/	5%	5%
COc1ccc(Cl)cc1C(=O)NCCCSc1ccccc1	-26%	-15%[46.1 µM]	0%	/	-35%	/	-3%[46.1 µM]	-1%
O=C(c1ccco1)N1CCN(C(=O)C2CCN(S(=O)(=O)c3cccs3)CC2)CC1	-6%	22%	-6%	1%	12%	1.6%	2%	-2%
CSC1=NCCN1C(=O)C12CC3CC(CC(C3)C1)C2	/	-3%	-15%	/	1%	/	-6%[46.1 µM]	6%
CN(C)C(=O)CN1C(=O)NC(c2ccccc2)(c2ccccc2)C1=O	-13%	18%[46.1 µM]	8%	/	-2%	/	?	2%
Cc1ccc(CNC(=O)c2ccc(CSCc3ccc(Cl)cc3)o2)cc1	/	-22%[46.1 µM]	-17%	-22%	/	-1.1%	/	/
Cc1ccc(NC(=O)CSCC(=O)N(C)CC(=O)Nc2cccc3ccccc23)cc1	/	-13%	-16%	/	/	/	-6%[46.1 µM]	-1%
CCCCNC(=O)CCn1c(=O)c2cccn2c2cccnc21	/	12%[46.1 µM]	-2%	3%	/	2.8%	/	/
c1ccc(-c2nnc3ccc(N4CCC5(CC4)OCCO5)nn23)cc1	-47%	-28%	-22%	?	-9%	11%	2%	-1%
CCC(=O)N1CCc2cc(Br)cc(S(=O)(=O)N3CCN(c4ccccc4OC)CC3)c21	/	0%[46.1 µM]	-13%	0%	/	-0.6%	1%[46.1 µM]	/
COc1ccc(C2/C=C\CN(C(=O)c3ccc(C)cc3)CC(=O)N2Cc2ccc(F)cc2)cc1 (stereo unspecified)	1%	/	-2%	/	-1%	/	/	5%
CCn1nc(NS(=O)(=O)c2ccc(NC(C)=O)cc2)c2cc3ccc(C)cc3nc21	?	/	34%[activator]	/	0%	/	/	-1%
COc1ccc(CNCCc2c(C)[nH]c3ccc(OC(F)(F)F)cc23)c(OC)c1	6%	?	-12%	/	1%	/	6.3µM*	4%
CC(=O)N=C(N)Sc1nc2ccccc2[nH]1	-2%	12%	65%[activator]	-8%	-36%	-3.8%	-23%[46.1 µM]	-27%
CCc1c(C(=O)OCc2ccccc2)[nH]c(C)c1C	2%	1%	47%[activator]	/	-1%	/	-30%[46.1 µM]	-3%
CC(C)CC(=O)c1c[nH]c(C(=O)NCCCn2ccnc2)c1	13%	11%	17%	-6%	5%	6.2%	2%	7%
Cc1cccn2c(=O)c3cc(C(=O)NC4CCCC4)c(=N)n(CC4CCCO4)c3nc12 (stereo unspecified)	-7%	17%	-7%	/	0%	/	-1%[46.1 µM]	-4%
CCN(C(=O)CSc1nnc2ccccn12)C1CCS(=O)(=O)C1 (stereo unspecified)	1%	3%	-5%	/	1%	/	10%[46.1 µM]	3%
CCc1nn(-c2cc(Cl)ccc2OC)c2c1C(=O)CCC2	1%	?	-9%	12%	0%	-0.1%	?	28%
CC(=O)Oc1c(-c2ccco2)oc2ccccc2c1=O	/	?	21%	/	-3%	/	?	2%

Copied from the list.
CC(=O)Oc1c(-c2ccco2)oc2ccccc2c1=O in StopGo reporter is entered as 21%
CC(C)CC(=O)c1c[nH]c(C(=O)NCCCn2ccnc2)c1 in Marburg entry inh is entered as 2%
CCN(C(=O)CSc1nnc2ccccn12)C1CCS(=O)(=O)C1 (stereo unspecified) in NS1 function inh is entered as 1%
CCc1c(C(=O)OCc2ccccc2)[nH]c(C)c1C in LASV entry inh is entered as 1%
Cc1cccn2c(=O)c3cc(C(=O)NC4CCCC4)c(=N)n(CC4CCCO4)c3nc12 (stereo unspecified) in LASV entry inh is entered as 17%
CC(=O)N=C(N)Sc1nc2ccccc2[nH]1 in Cruzain inh noDet is entered as -8%
CCc1nn(-c2cc(Cl)ccc2OC)c2c1C(=O)CCC2 in Cruzain inh noDet is entered as 12%
